# High-throughput results (PubChem BioAssay)
# HPGD inh: qHTS Assay for Inhibitors of HPGD (15-Hydroxyprostaglandin Dehydrogenase). 15-hydroxyprostaglandin dehydrogenase [NAD(+)] (Homo sapiens), P15428. purified HPGD, NADH fluorescence kinetic, PGE2 substrate. Potency, µM, for inactives: at the highest dose activity change, negative = inhibition, actives largely listed as inhibitors. actives 4.3% (n = 150,000); active = well fitted inhibition curve with a large enough effect (not every such curve was filed as active); inconclusive = small, poorly fitted or top-dose-only effect, or another doubt; inactive = no such curve, though single readings can be large or run the other way;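 note: top concentration of the series not given in the record; plate controls included wells without enzyme; inactives centre near -10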
# Target sequence (P15428 whole entry, looked up): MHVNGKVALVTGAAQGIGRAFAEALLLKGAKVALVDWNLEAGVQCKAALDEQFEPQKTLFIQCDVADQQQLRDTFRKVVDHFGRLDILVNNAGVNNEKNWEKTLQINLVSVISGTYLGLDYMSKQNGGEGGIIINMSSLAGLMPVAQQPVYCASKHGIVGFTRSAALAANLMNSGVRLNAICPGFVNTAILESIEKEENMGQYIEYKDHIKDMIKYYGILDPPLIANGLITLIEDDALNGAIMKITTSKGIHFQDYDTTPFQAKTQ
#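 NADH formation kinetics: reaction with 30 uM PGE2 and 1 mM NAD+ (final), 20 nM enzyme, Tris-HCl pH 8 with Tween 20, after 15 min compound preincubation at room temperature. Fluorescence change, last versus first of five reads.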
# * = called active by the depositor; ? = inconclusive; & = joins results of further samples. % is set by controls: 0 for no effect and ±100 for the full control effect; potency is the fitted concentration of half-maximal effect.
SMILES,HPGD inh
O=c1[nH]c(=O)n(Cc2ccco2)c(O)c1C=NCCCn1ccnc1,-7.7%
COc1cc2c(C(=O)N3CCN(C)CC3)c(C)n(C)c2cc1Br,-6.3%
CCC(=O)c1cn(Cc2ccc(C#N)cc2)c2ccccc12,-1.2%
O=[N+]([O-])c1cc(Cl)c(Cl)c(Cl)c1,-2.5%
C[C@H](CCC(=O)O)C[C@H](C)C[C@H](C)C(=O)/C=C(\O)[C@H](C)C[C@H](C)C/C=C/[C@@H](C)[C@@H](O)[C@@H](C)[C@@H](O)C[C@@H]1CC[C@@](C)(C2CC[C@@](C)([C@@H](C)O)O2)O1 (stereo partly specified),-2.2%
Cc1cc(OCc2ccc([N+](=O)[O-])cc2)c2c3c(c(=O)oc2c1)CCCC3,?
COc1ccccc1/C=C1/C(=N/O)C2CCN1CC2,-26.3%
CCN(CC)CCOC(=O)C(O)(c1ccccc1)c1ccccc1,-10.5%&-5.5%
CCOC(=O)c1cccc([P+](=O)O)c1,-1.5%
Clc1ccc(C(Cl)(Cl)Cl)cc1Cl,0.9%
NC(Cc1ccc(N(CCCl)CCCl)cc1)C(=O)O (stereo unspecified),3.3%&-10.3%
O=c1[nH]c2ccccc2n1C1CCN(CCCC(c2ccc(F)cc2)c2ccc(F)cc2)CC1,-4.2%&-7.4%&1.1%&-17.5%&-13.3%
COC(=O)N(C)c1ccc(C(O)(C(=O)OC)C(F)(F)F)cc1 (stereo unspecified),-6.2%
C=CCC(O)(C(=O)OC)c1ccccc1 (stereo unspecified),-9.6%
O=C(O)[C@@H]1C[C@H]2C[C@@H](CP(=O)(O)O)CC[C@H]2CN1,0.5%
CCC(C)N=Cc1c(O)n(-c2ccccc2)c(=O)[nH]c1=O (stereo unspecified),?
Cc1cccc(N2C(=O)CC(=O)NC2=O)c1,-9.7%
CC(O)(CS(=O)(=O)c1ccccc1)C(=O)Nc1cccc(C(F)(F)F)c1 (stereo unspecified),0.0018µM*
CSc1ccc(CNC2CN3CCC2CC3)cc1 (stereo unspecified),-2.0%
Cc1nc2ccc(Br)cc2c(=O)n1-c1ccc([N+](=O)[O-])c(C(F)(F)F)c1,?
CCCCCSc1cc(OC)c(CCN(C)C)cc1OC,-12.0%
O=C1Nc2ccc(Cl)cc2C(c2ccccc2)=NC1O (stereo unspecified),-3.8%
CCCN(CCC)CCc1ccc(O)c(O)c1,-7.6%
N#CCC(=O)NN1Cc2ccccc2C1=N,-0.4%
O=C(O)C1=CCCN(CCOC(c2ccc(C(F)(F)F)cc2)c2ccc(C(F)(F)F)cc2)C1,-1.9%
# Next records.
SMILES,HPGD inh
CCCCCCCCCCCCCC(=O)OC1C(C)[C@@]2(O)C(C=C(CO)C[C@]3(O)C(=O)C(C)=C[C@H]23)[C@@H]2C(C)(C)[C@]12OC(C)=O (stereo partly specified),-10.7%
CN1C(=O)C(Cc2nc3ccccc3c(=O)n2-c2ccccc2)c2ccccc21 (stereo unspecified),-10.1%
Cc1ccc(S(=O)(=O)NP(=O)(Oc2ccccc2)Oc2ccccc2)cc1,-7.1%
CCN(CC)c1ccc(C=C2C(=O)N(C)C(=S)N(C)C2=O)o1,-12.6%
C=C(C)CSc1nc2ncc(Cl)cc2[nH]1,12.6µM*
CN(C(=O)c1ccco1)C1(c2ccccc2Cl)CCCCC1=O (stereo unspecified),-0.8%
O=c1c2ccccc2nc(-c2cccs2)n1-c1ccccc1,?
CCCCCCCC(=O)NC(Oc1ccccc1[N+](=O)[O-])C(Cl)(Cl)Cl (stereo unspecified),10µM*
O=C(Nc1ccccc1)NC1CC2CCC(C1)N2 (stereo unspecified),-2.3%
O=C1NC(=O)N(c2ccccc2)C(=O)/C1=C/c1ccc(Sc2ccccc2)o1,-18.4%
CCOC(=O)C(C)(CC)NC(=O)CSP(=S)(OCC)OCC (stereo unspecified),-7.0%
CCc1ccc(N2C(=O)NC(=O)/C(=C/c3cccn3CCOc3ccc(C)cc3)C2=O)cc1,-6.9%
CCN(CC)c1ccccc1,-13.3%
COc1ccc(OC)c(N2C(=O)NC(=O)C3(Cc4cc(C)ccc4N(C)C3)C2=O)c1 (stereo unspecified),-11.0%
CCOc1ccc(/C=C2/C(=O)NC(=O)N(CCc3ccc(F)cc3)C2=O)cc1,10µM*
C=CCn1c(O)c(C(CC)=NCCC2=CCCCC2)c(=O)[nH]c1=O,-11.5%
CC1CC2CC(=O)C3CCCN4CCCC2[C@]34C1 (stereo partly specified),-0.7%
CCN(CC)c1ccc(N=Cc2c(O)n(CCc3ccc(OC)c(OC)c3)c(=O)[nH]c2=O)cc1,?
O=C(c1cc(C(=O)NCc2ccc(Cl)cc2)c(=O)n(Cc2ccc(Cl)cc2)c1)c1cc(F)ccc1O,-19.5%
CCN1CCN(C(=O)Cc2coc3ccc4ccccc4c23)CC1,-7.1%
Cc1ccc2c(c1)C1CN(C)CCC1N2C(=O)COc1ccc(S(=O)(=O)N2CCOCC2)cc1 (stereo unspecified),-1.0%
O=C1N[C@@]2(CN3CCC2CC3)C(=O)N1CN(Cc1ccccc1)c1ccccc1,-11.6%
CC(Cc1ccccc1Sc1ccc(O)cc1)N(C)C (stereo unspecified),-4.8%
CCN(CC)CCCN=C(C)c1c(O)n(-c2ccc(C)cc2)c(=O)[nH]c1=O,1.3%
C(=NC12CN3CN(CN(C3)C1)C2)c1cccs1,-10.0%
# Remaining list, next part.
SMILES,HPGD inh
CCC(=O)O[C@H]1CC[C@H]2[C@@H]3CCC4=CC(=O)CC[C@]4(C)[C@H]3CC[C@]12C,-5.0%
CC1CCC[C@H](O)CCCCCc2cc(O)cc(O)c2C(=O)O1 (stereo partly specified),-1.0%
CC1CC[C@@]2(NC1)O[C@@H]1C[C@H]3C4CC=C5C[C@@H](O)CC[C@]5(C)C4CC[C@]3(C)[C@H]1[C@@H]2C (stereo partly specified),-1.1%
CC12CN3CC(C)(CN(C1)C3c1ccco1)C2=O (stereo unspecified),-7.5%
O=c1[nH]c(=S)n(C2CC2)c(O)c1C=Nc1cccc(C(F)(F)F)c1,-20.4%
CC(N)Cc1c[nH]c2ccc(O)cc12 (stereo unspecified),-14.7%
c1ccc2c(N3CCNCC3)cccc2c1,?
CCCCn1c(=O)c(C=Nc2cccnc2Cl)c(O)n(CCCCl)c1=O,-24.3%
O=P1(NCCCl)OCCCN1CCCl (stereo unspecified),0.1%
Cc1oc(-c2ccc(Cl)cc2)nc1CS(=O)CC(=O)N1CCC2(CC1)OCCO2 (stereo unspecified),-7.4%
C[C@@]12CC[C@H](O)C[C@@H]1CC[C@H]1[C@H]2CC[C@@]2(C)[C@@H](C3=CC(=O)OC3)CC[C@]12O,-5.4%
Cn1c(N2CCNCC2)nc2ccccc21,-9.9%
O=c1[nH]c(=O)n(CCC2=CCCCC2)c(O)c1/C=N/Nc1ccccc1,-15.1%
CCOc1cc(-c2nc3c(C)cccn3c2NCC2CCCO2)ccc1O (stereo unspecified),?
CNC(C(=O)c1ccccc1)C(OC)c1ccc(C)cc1 (stereo unspecified),-6.1%
CCCCC(=O)C1C(=O)NC(=O)NC1=O,-0.4%
Cc1ccc(N=Cc2c(O)n(C)c(=O)n(C)c2=O)nc1,?
Nc1cccc2ccccc12,?
C[C@]12Cc3cn4c(nc3C=C1CCC1C2CC[C@@]2(C)[C@H]1CC[C@@]2(O)C#N)nc1ccccc14 (stereo partly specified),-16.6%
O=C1/C(=C/c2cc3c(cc2Cl)OCO3)N2CCC1CC2,22.4µM*
COCCNC(=O)c1c(NC(=O)c2ccc(Br)o2)n(Cc2ccccc2)c2nc3ccccc3nc12,?
OC(c1ccccc1)(c1ccccc1)C1CCCN1 (stereo unspecified),?
C[C@H]1C2C=C[C@H]1[C@@H](C(=O)O)[C@@H]2c1c2ccc(=O)c(O)c-2oc2c(O)c(O)ccc12,3.55µM*
CCCCC/C=C\C/C=C\C/C=C\C/C=C\CCCC(=O)OCCN,-13.2%
Cc1ccc(-n2c(-c3ccc([N+](=O)[O-])cc3)nc3ccccc3c2=O)cc1,-19.7%

# The list goes on (6 carried over from the part before).
SMILES,HPGD inh
O=C1/C(=C/c2cc3c(cc2Cl)OCO3)N2CCC1CC2,22.4µM*
COCCNC(=O)c1c(NC(=O)c2ccc(Br)o2)n(Cc2ccccc2)c2nc3ccccc3nc12,?
OC(c1ccccc1)(c1ccccc1)C1CCCN1 (stereo unspecified),?
C[C@H]1C2C=C[C@H]1[C@@H](C(=O)O)[C@@H]2c1c2ccc(=O)c(O)c-2oc2c(O)c(O)ccc12,3.55µM*
CCCCC/C=C\C/C=C\C/C=C\C/C=C\CCCC(=O)OCCN,-13.2%
Cc1ccc(-n2c(-c3ccc([N+](=O)[O-])cc3)nc3ccccc3c2=O)cc1,-19.7%
CCOC(=O)c1cn2nc(OP(=S)(OCC)OCC)cc2nc1C,-13.2%
O=C(CN1CCCCC1)Nc1ccc(Br)cc1C(=O)c1ccccc1Cl,-11.3%
CC(=O)c1cccc(NC2=NCC(C)S2)c1 (stereo unspecified),14.1µM*
CCCCCc1cc(O)cc(O)c1,-4.1%
CN(C)CCc1ccc(O)cc1,-9.9%
O=C(C1CCCN(c2nnc(-n3cccc3)s2)C1)N1CCC2(CC1)OCCO2 (stereo unspecified),-19.0%
CCC(=NCC1CCCO1)c1c(O)n(-c2ccc(Cl)cc2)c(=O)[nH]c1=O (stereo unspecified),-9.7%
CN1CCN(Cc2ccc(OC(F)(F)F)cc2)CC1,-16.3%
COc1ccc(-c2oc3cc(OC)ccc3c(=O)c2O)cc1,?
Cc1ccc(Cn2nnnc2CN2CCC(n3nnc4cc(C(F)(F)F)ccc43)CC2)cc1,-14.6%
Fc1ccc2c(c1)nnn2C1CCN(Cc2nnnn2C2CCCCC2)CC1,-11.6%
O=S(=O)(c1ccccc1)N1CN2CCN(C2)C1,-2.8%
CCCCn1c(O)c(C(CC)=NCc2ccc(F)cc2)c(=O)[nH]c1=O,-9.6%
O=P(Nc1ccccc1)(Nc1ccccc1)Oc1ccccc1,-20.7%
O=C(COC(=O)Cc1ccccc1)Nc1ncc(Cl)cc1Cl,-0.8%
CCNC(=O)C1OC(n2cnc3c(N)ncnc32)C(O)C1O (stereo unspecified),-7.9%
CN(CCc1ccc(Cl)c(Cl)c1)[C@H]1CCCC[C@H]1N1CCCC1,-2.7%
CNCC1(c2ccccc2)CCCC1,5.5%
Cc1cccc(OCC(=O)N2CCN(Cc3ccncc3)CC2)c1,2.6%
CCOc1ccccc1-n1c(O)c(C=NCCCN(CC)CC)c(=O)[nH]c1=O,-18.2%
CC1=CC(c2ccccc2)NC(=S)N1 (stereo unspecified),12.6µM*
O=C1OCCN1P(=O)(c1ccccc1)c1ccccc1,-0.9%
O=P(O)(O)/C=C(\Cl)c1ccccc1,-6.3%
O=C(c1cccn2c(=O)c3cc(Br)ccc3nc12)N1CCC2(CC1)OCCO2,?
C=CCN1CC[C@]23CCCCC2[C@H]1Cc1ccc(O)cc13 (stereo partly specified),-1.2%

# Rewritten as labelled records: entries from further up.
SMILES: CN1CCN(Cc2ccc(OC(F)(F)F)cc2)CC1
  HPGD inh: -16.3%
SMILES: COc1ccc(-c2oc3cc(OC)ccc3c(=O)c2O)cc1
  HPGD inh: ?
SMILES: Cc1ccc(Cn2nnnc2CN2CCC(n3nnc4cc(C(F)(F)F)ccc43)CC2)cc1
  HPGD inh: -14.6%
SMILES: Fc1ccc2c(c1)nnn2C1CCN(Cc2nnnn2C2CCCCC2)CC1
  HPGD inh: -11.6%

# Remaining list, next part.
SMILES,HPGD inh
COc1ccc2c(c1O)-c1c(OC)c(OC)cc3c1[C@H](C2)N(C)CC3,-5.0%&-11.1%
CCN(CC)P(=O)(Oc1cccc(C)c1)N(CC)CC,-0.9%
c1ccc(CNC2=NCCS2)cc1,-17.1%
CCOC(=O)C(O)(c1ccc(N(CC)C(=O)COc2ccccc2)cc1)C(F)(F)F (stereo unspecified),-8.7%
Cn1cccc1/C=C1\C(=O)NC(=O)N(CCC2=CCCCC2)C1=O,-13.3%
CC(C)(OOC(C)(C)c1ccccc1)c1ccccc1,-10.2%
CCOP(=O)(OCC)c1nc(-c2cccc3ccccc23)oc1NCCc1ccc(OC)cc1,?
N=C(N)c1c(O)n(C2CCCCC2)c(=O)n(C2CCCCC2)c1=O,-14.1%
CN1CN=C(N[N+](=O)[O-])N(Cc2ccco2)C1,-1.1%
CN(C(=O)Cc1ccc(Cl)c(Cl)c1)[C@H](CN1CCCC1)c1ccccc1,-7.2%
CC(=O)O[C@@H]1C[C@@]2(C)C(c3ccoc3)C[C@H]3O[C@]32[C@]2(C)C(=O)C(O)=C3C(C)(C)C(=O)C=C[C@]3(C)C12 (stereo partly specified),-7.9%
Fc1ccc(CCNCc2ccc(Cl)c(Cl)c2)cc1,-12.2%
c1ccc2sc(C3CCCNC3)nc2c1 (stereo unspecified),-8.1%
CCN(CC)c1ccc(N=Cc2c(O)n(-c3ccc(Cl)cc3)c(=O)[nH]c2=O)cc1,-17.6%
c1ccc(-c2nnc(SCc3nc4ccccc4[nH]3)o2)cc1,?
COC(=O)/C(C)=C\CC12OC(C)(C)C3CC(C=C4C(=O)c5c(OC)c6c(c(CC=C(C)C)c5OC431)OC(C)(CCC=C(C)C)C=C6)C2=O (stereo unspecified),-21.4%
CC(C)=CCCC1(C)C=Cc2c(O)c3c(c(CC=C(C)C)c2O1)OC12C(=CC4CC1C(C)(C)OC2(C/C=C(/C)C(=O)O)C4=O)C3=O (stereo unspecified),?
Cc1sc(-n2c(C)cc(C=C3C(=O)NC(=O)NC3=O)c2C)c(C#N)c1C,-29.3%
CCOC(=O)C1C2NC(=O)N(Cc3ccccc3)C1(C)Oc1c(OC)cccc12 (stereo unspecified),-4.6%
Cc1ccc(N(C)C(=O)Oc2cccc3cccnc23)cc1,2.3%
O=[N+]([O-])c1ccc(N2CCNCC2)c2ncccc12,-8.3%
c1ccc2[nH]c(CCNC3CCCCC3)nc2c1,-10.3%
CCc1cc2c(s1)NC(=O)CN=C2c1cccs1,-24.9%
N[C@@H](CCl)C(=O)O,-13.3%

# Only part of the results is shown (hit frequency here may not be typical).
